# fixLJ activator: activators of Burkholderia fixLJ two-component system, primary screen, B. multivorans, GFP reporter | B. multivorans fixK-promoter GFP reporter, 18 h; hits give high values | z-score (test concentration not listed) | 29,000 tested, 0.3% active;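 active means replicate mean overnight rise in green fluorescent reporter signal, 3 or more SD over negative controls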;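 further: score is relative to vehicle wells of the plate; 300 nL library stock went into each well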
# * = called active by the depositor; & = joins results of further samples. Only part of the results is shown; count on the stated rates, not on these rows.
# Sample of the layout:
SMILES,fixLJ activator
Cc1nc(-c2cccnc2)ncc1C(=O)N1CCC(C(O)CC(C)C)CC1 (stereo not drawn),-1.86
CCCNc1ncc(CN2CC(N(C)C)CC2C(=O)O)cn1 (stereo not drawn),-1.4
CCOC(=O)c1c(NC(=O)c2cc3ccccc3c(=O)o2)sc2c1CCCC2,-2.89
COc1cc(NC(=O)CCS(=O)(=O)c2ccc3c(c2)n(C)c(=O)c(=O)n3C)cc(OC)c1,-2.14

# The whole of this part, repeating the preview:
SMILES,fixLJ activator
Cc1nc(-c2cccnc2)ncc1C(=O)N1CCC(C(O)CC(C)C)CC1 (stereo not drawn),-1.86
CCCNc1ncc(CN2CC(N(C)C)CC2C(=O)O)cn1 (stereo not drawn),-1.4
CCOC(=O)c1c(NC(=O)c2cc3ccccc3c(=O)o2)sc2c1CCCC2,-2.89
COc1cc(NC(=O)CCS(=O)(=O)c2ccc3c(c2)n(C)c(=O)c(=O)n3C)cc(OC)c1,-2.14
CCOc1ccccc1C(=O)Oc1c(Sc2ccccc2)c(C)nn1C(C)(C)C,-1.34
CN(C)C1CCN(c2ccc(-c3nc(CCCc4ccccc4)no3)cn2)CC1,-0.72
CC(=O)N1CCc2cc(S(=O)(=O)NC(CC(C)C)C(=O)NCCc3ccccc3)ccc21 (stereo not drawn),-1.13
CCn1c(CC2CCNCC2)nn(Cc2ccc(F)cc2)c1=O,1.14
CCOc1cc(C2NC(=O)c3c(sc4c3CCN(C)C4)N2)ccc1OC(=O)c1ccc(F)cc1 (stereo not drawn),-2.02
Fc1ccc(C(c2ccc(F)cc2)N2CCN(C/C=C/c3ccccc3)CC2)cc1,-0.99&0.67
CCCCCCCCCCCCCCCCCCCCCCO,-0.55
CCOc1ccc(-c2nnc(Nc3ccc(S(N)(=O)=O)cc3)c3ccccc23)cc1,-1.93
CCCSc1nc2sc3c(c2c(=O)n1-c1cccc(Br)c1)CC(C)(C)OC3,-1.04
O=C(NCCCN1CCN(c2ccccc2F)CC1)c1ccc2nc(N3CCCCC3)sc2c1,-1.56
CC(CCO)Nc1nc2c(c(=O)n(C)c(=O)n2C)n1Cc1ccc(Br)cc1 (stereo not drawn),-1.75
Cn1c(=O)n(C)c2cc(N3CCCCC3)c(NC(=O)c3c(F)cccc3F)cc21,-2
O=C(CCS(=O)(=O)c1cc(Br)cc2c1N(C(=O)C1CC1)CC2)NCc1ccccc1Cl,-0.52
Cc1ccc(CCNC(=O)c2cc3c(-c4ccccc4F)nn(C)c3s2)cc1,-2.14
C[C@]12C=CC(=O)C=C1CC[C@@H]1[C@@H]2C(=O)C[C@@]2(C)[C@H]1CC[C@]2(O)C(=O)CO,-0.84
COc1ccc(C)cc1-n1nnc(S(=O)(=O)c2ccc(C)cc2)c1C,-1.95

# Quoted from the listing.
# In fixLJ activator, O=C(CCS(=O)(=O)c1cc(Br)cc2c1N(C(=O)C1CC1)CC2)NCc1ccccc1Cl reads -0.52
# In fixLJ activator, CCCNc1ncc(CN2CC(N(C)C)CC2C(=O)O)cn1 (stereo not drawn) reads -1.4

# Other structures
SMILES,fixLJ activator
Cc1cccc(C)c1OCCn1c(C2CC(=O)N(c3cccc(Cl)c3)C2)nc2ccccc21 (stereo not drawn),-2.14
Cc1ccc(CNC(=O)c2c(O)nc3cc(C)ccn3c2=O)cc1,0.02
COc1ccccc1CNC(=O)Cn1ncn2c(cc3sccc32)c1=O,-1.38
CN1C(=O)CCC12CCN(C(=O)c1ccc(S(N)(=O)=O)cc1)CC2,-0.39
Cc1nnsc1CNC(=O)Nc1cccc(C(=O)N2CCC(C)CC2)c1,-1.01
Cc1ccc(CN2COc3c(Cl)cc4c(-c5ccccc5)cc(=O)oc4c3C2)cc1,-1.98
COc1ccc(NC(=O)c2c(C(=O)Nc3ccccc3)sc3nc(C)cc(=O)n23)cc1,0.14
COc1ccc(OCc2nnc(-c3ccccc3)o2)cc1,0.36
O=C(Nc1cccc(Cl)c1)C1CCCN1S(=O)(=O)c1cccc2cccnc12 (stereo not drawn),0.42
COc1cc2nc(SCC(=O)Nc3ccccc3C)n3nc(CCn4c(C)nc5ccccc54)nc3c2cc1OC,0.55
CN1CCC2(CC1)CC(=O)N(CC(=O)N(C)Cc1ccoc1)C2,-0.41
Cc1ccc(S(=O)(=O)N2CCC(O)C(C(=O)O)C2)cc1F (stereo not drawn),0.38
Cc1ccccc1Nc1c(-c2c[nH]c3ccccc23)nc2ccc(Cl)cn12,-0.18
CC(=O)N1CCc2cc(Br)cc(S(=O)(=O)N3CCN(c4cccc(C(F)(F)F)c4)CC3)c21,3.26*
CC1=C(C(=O)OCc2ccc(C)cc2)C(c2c(Cl)cccc2Cl)CC(=O)N1 (stereo not drawn),1.19
COc1ccccc1C(=O)Nc1ccc(OCc2cc(=O)n3ccsc3n2)cc1,-0.79
Cc1cc(C)c2c(=O)cc(C(=O)Nc3sc4c(c3C(=O)NCc3cccnc3)CCCC4)oc2c1,-0.63
Cc1[nH]nc(C(=O)NCCn2c(C)cc3ccccc32)c1Cl,-2.01
Cc1ccc(NC(=O)CSc2nnc(-c3nnn(-c4ccc(F)cc4)c3C)o2)cc1Br,-9.67
Cc1cnc(C)c(-c2cc(O)c3c(c2)CN(CCSC(C)C)CCO3)n1,-1.46
Cc1nn2c(-c3ccco3)ccnc2c1-c1ccc(F)cc1,-0.37
Cc1ccccc1-c1nc2cc(NC(=O)Cc3ccc(Cl)cc3)ccc2o1,-1.74
O=C(NCC1CCCO1)c1c[nH]c2ccc(S(=O)(=O)Nc3ccc(F)cc3F)cc2c1=O (stereo not drawn),0.08
CCc1ccc(OCC(=O)N(Cc2ccc(C)o2)C2CCS(=O)(=O)C2)cc1 (stereo not drawn),0.47
COc1ccc(C2CC(=O)c3cc(-c4nc(-c5ccc(Cl)cc5)cs4)c(=O)[nH]c3C2)cc1 (stereo not drawn),0.68
CN1CCN(C(C)(C)CNc2cncc(C(=O)N(C)C)n2)CC1,-0.44
Cc1ccc(-n2c(=O)c3sc4ccccc4c3n(C)c2=O)cc1F,-1.01
CCCCN(CC)CCNC(=O)Cn1cnc2sc(C)c(S(=O)(=O)N3CCC(C)CC3)c2c1=O,-0.48
CCCCOc1ccc(C2C(C(=O)Nc3ccccc3OC)=C(C)Nc3nnnn32)cc1OC (stereo not drawn),-0.31
CCc1cccc(C)c1NC(=O)C(CC)Sc1nc2ccncc2[nH]1 (stereo not drawn),-0.44
CCOC(=O)c1ccc(N2C(=O)c3n[nH]c(C)c3C2c2ccc(O)c(OC)c2)cc1 (stereo not drawn),-1.68
COc1cc(C)c(C)cc1S(=O)(=O)N1CCC(O)C(C(=O)O)C1 (stereo not drawn),-0.2
COc1cccc(NC(=O)Cn2c(=O)n(-c3ccccc3)c(=O)c3ccc(C(=O)NCc4ccc5c(c4)OCO5)cc32)c1,0.52
Cc1ccc(-c2cc(-c3ccc4c(c3)NC(=O)CO4)nc3c2COc2ccc(C)cc2-3)cc1,0.28
COc1ccc(/C=C\c2onc(C)c2S(=O)(=O)N2CCC(C(=O)Nc3ccc(Cl)cc3)CC2)cc1,-1.28
Cc1ccc(-c2nnc(Nc3cccc(O)c3)c3ccccc23)cc1S(=O)(=O)N1CCN(C)CC1,-0.09
CC1=C(C(=O)Nc2ccccc2)C(c2ccncc2)n2nc(SCc3ccccc3)nc2N1 (stereo not drawn),-1.17
CC(C)(Oc1ccc(Br)cc1)C(=O)Nc1cc(-c2nc3ccccc3[nH]2)ccc1Cl,-0.39
CCc1ccc(-n2c(=O)c3ccccc3n(Cc3ccccc3C#N)c2=O)cc1,0.12
Cc1cc(C)c(NC(=O)Cn2c(=O)n(CC(=O)NCCc3ccccc3)c(=O)c3ccccc32)c(C)c1,-1.02
CCN(CC)CCCNC(=O)CSc1nc2nc(C)c(Cc3ccccc3C)c(C)n2n1,0.23
CC(C)c1ccc(C2N3CC4(C)CN2CC(c2ccccc2)(C3)C4=O)cc1 (stereo not drawn),-1.48
Cc1nc(C)c(C(=O)NC2CCC(NC(=O)c3nn(C)c4ccccc34)C2)s1 (stereo not drawn),0.68
CC(=O)NC(Cc1cnc[nH]1)C(=O)N1CCN(c2ncccc2C)CC1 (stereo not drawn),-0.71
Cn1c(/C(C#N)=C/c2ccc(C(F)(F)F)cc2)nc2ccccc21,0.02
CCn1cc2nc(SCc3cccc(Cl)c3)n(Cc3ccc(C)cc3)c(=O)c2n1,0.89
COc1cc2c(cc1NC(=O)C(C)Oc1ccc(Cl)cc1Cl)oc1ccccc12 (stereo not drawn),-0.31
CCOC(=O)C1=C(CN2CCN(c3cc(C)ccc3C)CC2)NC(=O)NC1c1ccccc1 (stereo not drawn),-0.26
Cc1ccc(NC(=O)CNC(=O)Cn2c(C)cc3ccccc3c2=O)cc1F,-0.69
COc1ccc(Cn2c(=O)c3cccnc3n(CC(=O)Nc3c(C)cc(C)cc3C)c2=O)cc1,0.45
COc1ccc(CNC(=O)C2CCN(C(=O)N3CCOc4ccc(C)cc43)CC2)cc1,-2.18
Cc1ccc(Sc2c(C)nn(-c3ccccc3)c2OC(=O)CC(C)C)cc1,-1.68
Cc1ccc(C(=O)COC(=O)c2cc(-c3ccc(Cl)cc3)nc3ccccc23)cc1,2.32
COc1ccc(-n2nc(C(=O)Nc3cc(C)ccn3)c3c4ccccc4n(C)c3c2=O)cc1,0.83
Cc1ccc(CSc2ncc(Cl)c(C(=O)Nc3nnc(C)s3)n2)cc1,0.14
CCOc1cccc(C(=O)Nc2ccc3oc(-c4ccncc4)nc3c2)c1,-0.58
Cc1ccc(S(=O)(=O)c2nc(-c3ccccc3)oc2SCC(=O)NC2CCCCC2)cc1,0.28
COC(=O)C1CC(O)CN1C(=O)Cn1nc(-c2ccccc2)nc1C(C)N (stereo not drawn),0.25
COc1ccc(NC(=O)CCc2nnc3n(CC(C)C)c(=O)c4ccccc4n23)cc1,-0.54
N=c1n(CCO)c2ccccc2n1CCOc1ccc(F)cc1,-1.27
# Continuation.
SMILES,fixLJ activator
Cc1ccc(C)c(N2CCN(C(=O)CCc3nnc4n(C)c(=O)c5ccccc5n34)CC2)c1,0.34
CCCN(CCC)S(=O)(=O)c1ccc(C(=O)N2CCn3c4c(c5cc(C)ccc53)CCCC42)cc1 (stereo not drawn),-1.89
CCC(=O)N1CCc2cc(S(=O)(=O)NC(CC(C)C)C(=O)NCc3ccc(C)cc3)ccc21 (stereo not drawn),-0.59
CC(C)CN(C)C(=O)c1cnc(Cc2c(Cl)cccc2Cl)[nH]c1=O,-0.45
Cc1ccc(C)c(Cn2c3ccccc3c3cnn(CC(=O)N4CCCCC4)c(=O)c32)c1,-0.33
CCCCNC(=O)C1CCCN(Cc2nc(-c3ccc(Cl)cc3)oc2C)C1 (stereo not drawn),-0.29
Cc1ccc(-c2nc(S(=O)(=O)c3ccc(C)cc3)c(SCC(=O)NC3CCCCC3)o2)cc1,-1.7
Cc1cccc(N2CCN(C(=O)C3CCCN(S(=O)(=O)c4ccc(Br)s4)C3)CC2)c1C (stereo not drawn),-1.26
CC(C)c1ccc(NC(=O)c2ccc(NC(=O)CCS(=O)(=O)c3cccs3)cc2)cc1,-0.87
Cc1ccc(NC(=O)c2cnn3c(C(F)F)cc(-c4ccccc4)nc23)cc1F,-1.64
COc1ccc(-n2nc(C(=O)N3CCN(c4cccc(C)c4)C(C)C3)c3c4ccccc4n(C)c3c2=O)cc1 (stereo not drawn),-0.8
O=C(c1ccc(-c2cc(=O)[nH]cn2)cc1)N1CCCN(c2ncccn2)CC1,-1.58
Cc1cccc(CN2C(=O)c3ccccc3S(=O)(=O)c3ccc(C(=O)N4CCN(c5cc(C)ccc5C)CC4)cc32)c1,-0.35
O=C(c1coc(CN2CCOCC2)c1)N1CCN(c2nccs2)CC1,-1.11
Cc1ccc(C(=O)NC(C)c2cn3ccsc3n2)cc1N1CCNC1=O (stereo not drawn),-0.93
Cc1ccc(C)c(N2CCN(C(=O)C3CCC(CNS(=O)(=O)c4ccc(Br)s4)CC3)CC2)c1 (stereo not drawn),0.06
Cc1ncc([N+](=O)[O-])n1CC(O)CCl (stereo not drawn),0.24
Cc1ccc(-c2noc(CNC(=O)c3ccc(C(C)(C)C)cc3)n2)cc1,0.53
CCN(CC)S(=O)(=O)c1ccc2c(c1)c(=O)c(C(=O)NCc1ccccc1Cl)cn2C,-0.64
O=C(C1CCC1)N1CCn2nc(CNc3ncccn3)cc2C1,-0.83

# Gathered by group, the compounds so far with two or more sulfur atoms
SMILES,fixLJ activator
CCCSc1nc2sc3c(c2c(=O)n1-c1cccc(Br)c1)CC(C)(C)OC3,-1.04
CCCCN(CC)CCNC(=O)Cn1cnc2sc(C)c(S(=O)(=O)N3CCC(C)CC3)c2c1=O,-0.48
Cc1ccc(CSc2ncc(Cl)c(C(=O)Nc3nnc(C)s3)n2)cc1,0.14
Cc1ccc(S(=O)(=O)c2nc(-c3ccccc3)oc2SCC(=O)NC2CCCCC2)cc1,0.28
Cc1ccc(-c2nc(S(=O)(=O)c3ccc(C)cc3)c(SCC(=O)NC3CCCCC3)o2)cc1,-1.7
Cc1cccc(N2CCN(C(=O)C3CCCN(S(=O)(=O)c4ccc(Br)s4)C3)CC2)c1C (stereo not drawn),-1.26
CC(C)c1ccc(NC(=O)c2ccc(NC(=O)CCS(=O)(=O)c3cccs3)cc2)cc1,-0.87
Cc1ccc(C)c(N2CCN(C(=O)C3CCC(CNS(=O)(=O)c4ccc(Br)s4)CC3)CC2)c1 (stereo not drawn),0.06

# Other compounds follow.
SMILES,fixLJ activator
COc1ccc(CNc2nc3c(-c4cccc(C)c4)nnn3c3ccccc23)cc1,-1.48
COc1cccc2sc(=NC(=O)c3ccc(S(=O)(=O)N4CCCCC4)cc3)n(C)c12,-1.16
CCc1ccc(C(=O)c2c(N)c(-c3nc(-c4ccc5c(c4)OCO5)cs3)c3ccccn23)cc1,-1.47
CC(Cn1cccn1)NC(=O)COc1ccc(Cl)cc1Cl (stereo not drawn),-0.1
Cc1ccc(CNC(=O)CCCCCn2c(=O)c3sccc3n(CC(=O)C(C)(C)C)c2=O)cc1,-1.44
O=C(C(O)c1ccc(Cl)cc1)N1CCC2(CCC(=O)N(C3CC3)C2)CC1 (stereo not drawn),-0.35
CCN(CC)c1cc(C)c2cc(NC(=O)c3ccc(F)cc3Cl)ccc2n1,-1.52
Cn1c(=O)n(-c2ccc3c(c2)OCO3)c2nc(-c3ccccc3)nc(C(N)=O)c21,-0.42
COc1ccccc1NC(=O)c1sc2nc(C)c(C(=O)Nc3ccc(C)cc3C)c(-c3ccccc3Cl)c2c1N,1.73
CCOC(=O)c1ccc(NC(=O)c2oc3ccc4c(c3c2C)C(=O)CC(C)(CC)O4)cc1 (stereo not drawn),-2.24
